# Bioassay records deposited in PubChem by ICCB-Longwood Screening Facility, Harvard Medical School.
# CapD inh: Bacillus anthracis CapD inhibitors, primary screen, biochemical, fluorescence intensity; CapD gamma-glutamyltranspeptidase (Bacillus anthracis Ames Ancestor); z-score (concentration not given with the values); 0.23% of 140,000 active; purified CapD enzyme, fluorescence intensity read-out; stronger effect = lower value; some hits fall short of the stated cut;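 active means z-score under -4 in either of two replicates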;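 further: stock transfer was 100 nL into about 40 µL; score is relative to mean and spread of the plate; one replicate is shown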
# AID504770: growth inhibition of E. coli YBA685, primary screen, V. cholerae RctB inhibitors. E. coli YBA685 rctB-dependent plasmid, OD600 growth, 3 h; stronger effect = lower value. AID 504770, 2011. 0.27% of 130,000 active. z-score (no concentration beside the values);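 active means z-score under -2 on both plates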;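 further: wells of about 30 µL received 100 nL stock; score is relative to mean and SD of the test wells; the first replicate is given; strong numbers were not always called active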
# * = called active by the depositor; . = no result given. Rows were taken by chance, and some 0.39% of all compounds hit somewhere here.
smiles | CapD inh | AID504770
CC(=O)N(C)c1cccc2ccccc12 | 0.6 | 0.05
CCC(=O)N1CCc2cc(Br)cc(S(=O)(=O)N(C)c3ccc(OC)cc3OC)c21 | 0.03 | 0.05
CCNC(=O)n1cc(-c2ccncn2)c(-c2ccncc2)n1 | -0.17 | .
C=CCSc1nnc(OC(=O)N(C)C)n1-c1cccc(C(F)(F)F)c1 | 0.3 | -0.45
CCN1CC=C2C(C1)C(c1ccc(Cl)s1)C(C#N)=C(N)C2(C#N)C#N (stereo not given) | . | 0.95
NC(=O)C1CCN(CCS(=O)(=O)c2ccc(Cl)cc2)CC1 | 0.2 | .
CCN(Cc1ccccc1)C(=O)CSC1=Nc2ccccc2C2=NC(c3ccccc3)C(=O)N12 (stereo not given) | -0.01 | 0.1
CC(C)(C)C(=O)N1CCc2cc(S(C)(=O)=O)ccc21 | 0.3 | .
Cn1nc(C(=O)Nc2ccccc2)c2c1-c1ccsc1CC2 | -0.065 | 0.6
O=C(CN1C(=O)CCc2ccccc21)NC1CCCc2ccccc21 (stereo not given) | -1 | -0.1
COc1cccc(-c2nc3ccccc3c(=O)o2)c1 | 0.34 | -0.95
CC(C)(C)c1nnc(NS(=O)(=O)c2ccc(F)cc2)s1 | . | -0.3
CS(=O)(=O)N(CC(=O)NCc1ccco1)Cc1ccc(Cl)c(Cl)c1 | . | -0.45
CC1C2C(C)N(C)C(=O)N(C)C2N(C)C(=O)N1C (stereo not given) | 0.21 | -0.15
Cc1ccc(-c2nnc(CCC(=O)NN)o2)cc1 | . | 0.2
C=CCn1c(SCC2=C(C(=O)OCC)C(C)NC(=O)N2)nnc1C1CCCCC1 (stereo not given) | . | -0.65
COc1nc(N(c2ccccc2)c2ccccc2)nc(-n2ccnc2)n1 | -0.62 | -0.25
CSc1sc(C(=O)NNC(=O)c2cccc(C(F)(F)F)c2)c2c1C1(CCC2)SCCS1 | -1.1 | .
COc1ccc(NC(=O)c2sc3nc4c(c(-c5ccco5)c3c2N)CCCC4)cc1 | 0.47 | .
S=c1nc[nH]c2c1oc1ccccc12 | . | -1.1
CS(=O)(=O)/C(C#N)=C\c1cnc(S(=O)(=O)c2ccccc2)s1 | 0.49 | .
N#Cc1ccc(C=Nc2cccc3c(N=Cc4ccc(C#N)cc4)cccc23)cc1 | 14 | -0.25
CCOC(=O)CNc1nc(Cl)nc(N2CCSCC2)n1 | -0.31 | .
C/C(=C\c1ccc(N(C)C)cc1)[N+](=O)[O-] | -1 | .
CC(C(=O)N1c2ccccc2Sc2ccccc21)N1C(=O)c2ccccc2C1=O (stereo not given) | -0.2 | 0.45
CCN(C(=O)CSc1nc2sc3c(c2c(=O)n1C)CCCC3)C1CCS(=O)(=O)C1 (stereo not given) | . | 0.3
O=C(NCCc1ccccc1)c1ccc(-n2cc(-c3ccncn3)cn2)cc1 | 3 | .
O=P(c1ccc2c(c1)OCCO2)(N1CCOCC1)N1CCOCC1 | . | 0.15
Cc1cc(C)n(CCC(=O)NC2CCCCCC2)n1 | -0.73 | 0.45
Cc1ccc(-c2cn3cccc(C)c3n2)cc1 | 112 | -0.85
Cc1ccccc1NC(=O)c1cc(C)n(Cc2cccs2)c1C | 0.52 | -0.5
CC1(C)CC(=O)C2=C(C1)NC1=C(C(=O)CC(C)(C)C1)C2c1ccccc1O | -0.18 | .
COc1cccc(C(=O)N2CCCCC2C)c1 (stereo not given) | 0.24 | -0.15
C/C(N)=C(/C#N)C(=O)CSc1nnc2sc3ccccc3n12 | . | 1
CC1CCc2c(sc(N)c2C(=O)Nc2ccc(Cl)cc2)C1 (stereo not given) | 0.45 | -0.65
Cc1oc(-c2ccccc2F)nc1CS(=O)(=O)CC(=O)NC1CCCC(C)C1C (stereo not given) | -0.24 | 1.4

# Some values from the results shown:
# Reading of CC1(C)CC(=O)C2=C(C1)NC1=C(C(=O)CC(C)(C)C1)C2c1ccccc1O under CapD inh: -0.18
# Reading of CC(C(=O)N1c2ccccc2Sc2ccccc21)N1C(=O)c2ccccc2C1=O (stereo not given) under CapD inh: -0.2
# Reading of O=C(NCCc1ccccc1)c1ccc(-n2cc(-c3ccncn3)cn2)cc1 under CapD inh: 3
# Reading of COc1cccc(C(=O)N2CCCCC2C)c1 (stereo not given) under CapD inh: 0.24
# Reading of O=P(c1ccc2c(c1)OCCO2)(N1CCOCC1)N1CCOCC1 under AID504770: 0.15
# Reading of C/C(N)=C(/C#N)C(=O)CSc1nnc2sc3ccccc3n12 under AID504770: 1
# Reading of Cc1cc(C)n(CCC(=O)NC2CCCCCC2)n1 under AID504770: 0.45

# Next records
smiles | CapD inh | AID504770
FC(F)(F)c1ccc(-c2n[nH]c(=S)o2)nc1 | -2.8 | -0.4
CC(C)OC(=O)CSc1ncnc2c1cnn2-c1ccccc1 | . | 0.05
COc1cccc2cc(-c3csc(Nc4ccc(Oc5ccc(Cl)cc5)cc4)n3)c(=O)oc12 | -0.17 | .
N#Cc1ccc(NC(=O)C2CCCO2)cc1 (stereo not given) | . | -0.15
O=C(NCCN1CCN(c2ncnc3sc4c(c23)CCCC4)CC1)c1ccco1 | . | 0.25
COc1ccc(OC)c(S(=O)(=O)N2CC(C)OC(C)C2)c1 (stereo not given) | 0.36 | .
S=C(NCC1CC1)Nc1cccnc1 | -0.48 | .
CCC(=O)c1c[nH]c(C(=O)NCCCn2ccnc2)c1 | 0.15 | 1.8
CC1(C)CC2CC(C)(CN2C(=O)COC(=O)c2ccc(Cl)c(N)c2)C1 (stereo not given) | 22 | 0.4
Cc1[nH]c2ccc(C(=O)OCC(=O)N3CCN(c4ccccc4)CC3)cc2c1C | . | 0.4
CS(=O)(=O)N1CCN(Cc2ccccc2)CC1 | 0.65 | -0.35
N#C/C(=C(/O)CSc1nncn1-c1ccccc1)c1nc2ccccc2[nH]1 | . | 0.1
COc1ccc(NC(=O)Nc2ccc3c(c2)C(=O)OC3)cc1 | -0.46 | 0.2
Cn1c(=O)c2c(ncn2CC(=O)Nc2cccc(F)c2)n(C)c1=O | 0.005 | .
COc1cc(OC)nc(COc2ccc(C(=O)NCC3CCCO3)cc2)n1 (stereo not given) | -0.34 | .
O=C(NCC(O)c1ccccc1)c1ccccc1 (stereo not given) | -0.48 | -0.7
c1ccc2oc(CSc3ccc4c(c3)OCCO4)nc2c1 | . | -0.6
CN(c1ccccc1)S(=O)(=O)c1ccc(C(=O)Nc2sc3c(c2-c2nc4ccccc4s2)CCCC3)cc1 | -0.26 | .
Cc1nc2ccc(Br)cc2c2c1C(=O)N(Cc1ccccn1)C2=O | -0.69 | .
Cn1c(=O)n(Cc2ccc(Cn3c(=O)c4c(ncn4Cc4ccccc4)n(C)c3=O)cc2)c(=O)c2c1ncn2Cc1ccccc1 | 0.34 | .
Cn1c(SCCS(=O)(=O)c2ccc(Cl)cc2Cl)nnc1-c1ccco1 | 0.24 | 1.1
Cc1cc(C(=O)NCC2CCN(C3CCCC3)C2)nc2c1c(C)nn2-c1ccccc1Cl (stereo not given) | 2.8 | -0.65
Cn1c2ccccc2c2nnc(SCCN3CCCCC3)nc21 | -0.15 | -0.25
COc1cc2c(cc1OC)C(C)N(S(=O)(=O)c1cn(C)cn1)CC2 (stereo not given) | 0.065 | -0.65
CC(C)(C)c1ccc(C(=O)Nc2ccon2)cc1 | 0.52 | 0.05
Cc1ccc(S(=O)(=O)N2c3ccccc3OCC2c2ccccc2)cc1 (stereo not given) | 0.36 | .
COc1ccc(C2C(C(=O)c3ccc(Cl)cc3)N3c4ccccc4C=CC3C2(C#N)C#N)cc1OC (stereo not given) | 1.5 | .
O=C(O)C1CN=C(c2ccccc2)N1 (stereo not given) | . | 1.2
N#Cc1c(N)n[nH]c1-c1cc2c([nH]1)CCCC2 | . | -0.2
Cc1nc(C)c(NC(=O)OC(C)C)cc1NC(=O)OC(C)C | . | 0.25
CCN=c1sc(C(=O)Nc2ccccc2)c(C)n1CC | . | 0.1
O=C1C2C(C(=O)N1c1ccc(F)cc1)N1CCCN1C2c1ccccc1 (stereo not given) | -0.31 | .
O=C(Cn1cnc(S(=O)(=O)N2CCCCC2)c1)N1CCc2ccccc21 | 0.43 | 0.65
CCN(C(=O)c1ccc(C(=O)N(CC)c2ccccc2)cc1)c1ccccc1 | -0.41 | -0.6
CCN1C=CC2=C(C#N)C(N)C(C#N)(C#N)C(c3ccccc3C(F)(F)F)C2C1 (stereo not given) | . | 0.15
CCCc1cc(=O)[nH]c(SCC(=O)Nc2cc(Cl)cc(Cl)c2)n1 | 1.2 | 0.3
CC(C)(C)NSc1nc2ccccc2s1 | . | -1.1
OC(CNCC1COc2ccccc2O1)c1ccccc1 (stereo not given) | 0.085 | -2.1
CC(C)NC(=O)CSc1nc(-c2ccccc2)cn1N | . | 0
O=C(O)C1CC(=O)N(Cc2ccccc2Cl)C1 (stereo not given) | 0.46 | .
O=C(Nc1cccc2cccnc12)c1ccc(Br)o1 | . | 0.15
Cc1ccc(S(=O)(=O)N2CCCN(S(=O)(=O)c3ccc(C)cc3)CCN(S(=O)(=O)c3ccc(C)cc3)CCCN(S(=O)(=O)c3ccc(C)cc3)CC2)cc1 | 0.61 | .
Cc1nn(-c2ccccc2)c(Cl)c1C(=O)OCC(=O)N1CCCC1 | . | -0.9
CCn1c(C)nc2c(=O)oc3ccccc3c21 | -0.31 | -4.5
CC1(C)CC(=O)C(C=NCCN2CCN(CC(=O)Nc3ccccc3)CC2)=C(O)C1 | 0.71 | -0.65
Cc1cc(NS(=O)(=O)c2ccccc2)cc(S(=O)(=O)c2ccccc2)c1O | -0.005 | -1.2
Cc1cccc(N2CCN(S(=O)(=O)c3ccccc3OC(F)(F)F)CC2C)c1 (stereo not given) | -0.16 | .
COC(=O)c1c(C(=O)OC)c(-c2ccc(Cl)c(Cl)c2)n2c1CSC2 | -0.38 | .
COc1ccccc1/C=N/n1cnnc1SCC(C)(C)NS(=O)(=O)c1ccc(C)cc1 | . | 0.4
O=C(CC1SC(=Nc2ccccc2)N(C2CC2)C1=O)Nc1cccc(Cl)c1 (stereo not given) | . | -0.15
N/C(=N\O)c1cccc(CS(=O)(=O)c2ccc(Cl)cc2)c1 | 0.075 | -0.8
O=c1oc2ccccc2cc1-c1nc2ccccc2s1 | 16 | .
CCn1c(SCC(=O)NC2CCCCC2)nc2ccccc21 | 1.1 | 0.05
CCOc1nc(S(=O)(=O)c2ccc(C)cc2)c(Cl)s1 | -0.15 | -1.1
N#Cc1c(-c2ccccc2)cc(-c2cccs2)nc1SCC(N)=O | 8.6 | .
Cc1ccc2oc(=O)c3cnn(CC(=O)NC(C)C)c3c2c1 | -0.28 | -0.6
Cc1ccc(NCn2nnc3ccccc32)c(Br)c1 | -0.035 | -1.1
O=C1CCc2cc(S(=O)(=O)NC(Cc3ccccc3)C(=O)N3CCn4c3nc3ccccc34)ccc2N1 (stereo not given) | 0.09 | -1.8
CC[n+]1c(C)csc1Nc1c(C)cc(C)cc1C | 0.3 | -0.25
CCCC(=O)c1cc(F)c(N2CCOCC2)cc1C | . | -0.2

# Additional compounds follow:
smiles | CapD inh | AID504770
O=C(Nc1ccc(-c2noc(Cc3ccc(Cl)cc3)n2)cc1)c1ccco1 | -0.3 | .
Cc1csc(=O)n1CC(=O)OCC(=O)c1ccc(C(C)(C)C)cc1 | . | 0.5
CCN1C=C(C(=O)OC)C(c2cc3c(cc2Br)OCO3)C(C(=O)OC)=C1 | 43 | 2.1
Cc1noc(C)c1COC(=O)CC1Sc2ccccc2NC1=O (stereo not given) | . | 1.9
CCn1c(SCCN2CCOCC2)nnc1C1CCCCC1 | . | 0.05
Cc1ccc(OCc2nc(SCC(=O)NCC(F)(F)F)n[nH]2)cc1 | . | -1.2
Fc1ccc(CSc2nc(NCC3CCCO3)c3ccccc3n2)cc1 (stereo not given) | 0.34 | .
O=C1c2ccccc2C(=O)N1Cc1ncc(-c2ccccc2)o1 | . | -0.6
Cc1nc2oc3ccc(F)cc3c(=O)c2cc1C(=O)Nc1ccc(Cl)cc1 | 0.26 | .
CC(=O)Nc1cc(C(=O)NCCc2ccc(C)cc2)ccc1Sc1ccc(C)cc1 | 0.41 | -0.35
CS(=O)(=O)N1CCC(c2nc(-c3ccc(S(=O)(=O)NCC4CCCO4)cc3)no2)CC1 (stereo not given) | . | -0.95
CCCN(CCC)C(=O)CSc1nc2ccsc2c(=O)n1-c1ccc(Br)cc1 | -0.36 | 0.3
Cc1cccc2cc(CN(C(=O)c3ccco3)C3CCCC3)c(=O)[nH]c12 | . | 0.15
CSC1=N/C(=C\c2ccccc2Cl)C(=O)N1 | -1.2 | -0.2
CCOC(=O)c1c(C)oc2ccc(N(C(=O)c3ccccc3)S(=O)(=O)c3ccc(Cl)cc3)cc12 | -0.33 | .
COc1ccccc1N1CCN(C(=O)c2cccc([N+](=O)[O-])c2)CC1 | 1.2 | .
CC1(C)c2ccccc2N(CCC(N)=O)C12C=Cc1c(ccc3ccccc13)O2 (stereo not given) | -0.35 | 0.3
CC(=O)Nc1cc2nn(-c3ccccc3)nc2cc1C | 69 | 0.15
COC(=O)c1c(C)nc(C)c(C(=O)OC)c1-c1cccs1 | -0.01 | 0.8
Cc1ccc(CCC2C3=C(CCCC3=O)OC3=C2C(=O)CCC3)cc1 | 0.21 | -0.45
Cc1cc(C(=O)OCC(=O)N2CC3(C)CC2CC(C)(C)C3)c(C)o1 (stereo not given) | . | 0.75
Cc1cc(C)c(-n2cccc2CN)c(C)c1 | 0.62 | -0.45
C=CCc1c(C)[nH]c2ccccc2c1=O | . | -0.45
COc1ccc(NC(=O)c2cccc(S(=O)(=O)N3CCCC3)c2)c(OC)c1 | . | 1.1
CN(C)/C=C1\C(=O)c2c(Oc3ccc(Cl)cc3)cccc2C1c1ccccc1 (stereo not given) | 2.6 | .

# Molecules above containing a nitro group on carbon (2):
smiles | CapD inh | AID504770
C/C(=C\c1ccc(N(C)C)cc1)[N+](=O)[O-] | -1 | .
COc1ccccc1N1CCN(C(=O)c2cccc([N+](=O)[O-])c2)CC1 | 1.2 | .
